From PubChem BioAssay
rRNA inh HTS: reduced GFP signal of wild-type E. coli, primary screen, bacterial rRNA inhibitor project, GFP/RFP fluorescence, OD600, single point; GFP signal change (wild-type ribosome), % (no concentration beside the values); 350,000 compounds, 1.6% hits; E. coli WT GFP vs humanized-ribosome RFP mutants, 24 h; hits give low values; DMSO median 0, no signal -100;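 active = significant combined selectivity score with lowered wild-type GFP, culture density cut under 30%, mutant RFP and density less affected; inactive = any of these conditions unmet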; note: one replicate is shown; some compounds called inactive have numbers as strong as hits
HNF4A DNA FP: change in binding of human HNF4A to DNA, primary screen, biochemical, fluorescence polarization, FITC-DNA; Hepatocyte nuclear factor 4-alpha (Homo sapiens), P41235; 1 h; activity change, % at 10 µM; 360,000 compounds, 0.3% hits; AID 1224865, 2016; in the data active = activity change above about 30%, passing the limit was not always enough;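 note: controls were the assay level and a saturating level of protein; the project sought stronger binding though the title names inhibitors; some compounds called inactive have numbers as strong as hits; positive values seem to mean higher polarization but the record does not say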
Vif A3G: inhibitors of Vif binding to APOBEC3G peptide, primary screen, biochemical, TR-FRET, GST-Vif 1-94, biotin-A3G peptide, dose response retest (AID 1117319); TR-FRET GST-Vif / biotin-A3G peptide binding; higher % means a stronger effect; test concentration not given here; strong numbers were not always called active; one-dose inhibition, %; IC50 in µM for titrated hits; 260,000 compounds, 0.57% hits;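 active = above the screen mean plus three standard deviations and confirmed in dose response; inconclusive = results disagree or hit not tested in dose response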;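 note: Vif residues 1-94 fused to GST binding biotinylated APOBEC3G peptide 110-148; 0% = full assay without inhibitor and 100% = GST in place of GST-Vif; retest series ran down from 100 µM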
AF4-AF9 inh: inhibitors of AF4 peptide binding to AF9, primary screen, biochemical, AlphaScreen, biotin-AF4 peptide, FLAG-AF9, single point; Protein AF-9 (Homo sapiens), P42568; AID 651704, 2012; 350,000 compounds, 0.47% hits; inhibition, % at 10 µM;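 active = every replicate reaching a set inhibition limit, whatever the replicate mean, cut at about 25% in these data; inconclusive = mean inhibition reaches that limit but some replicates miss it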;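 note: 0% = plate neutral control median and 100% = total signal loss; the record names both 10 and 1 µM as test concentration; the first replicate is given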
Target sequence (P42568 whole entry, looked up): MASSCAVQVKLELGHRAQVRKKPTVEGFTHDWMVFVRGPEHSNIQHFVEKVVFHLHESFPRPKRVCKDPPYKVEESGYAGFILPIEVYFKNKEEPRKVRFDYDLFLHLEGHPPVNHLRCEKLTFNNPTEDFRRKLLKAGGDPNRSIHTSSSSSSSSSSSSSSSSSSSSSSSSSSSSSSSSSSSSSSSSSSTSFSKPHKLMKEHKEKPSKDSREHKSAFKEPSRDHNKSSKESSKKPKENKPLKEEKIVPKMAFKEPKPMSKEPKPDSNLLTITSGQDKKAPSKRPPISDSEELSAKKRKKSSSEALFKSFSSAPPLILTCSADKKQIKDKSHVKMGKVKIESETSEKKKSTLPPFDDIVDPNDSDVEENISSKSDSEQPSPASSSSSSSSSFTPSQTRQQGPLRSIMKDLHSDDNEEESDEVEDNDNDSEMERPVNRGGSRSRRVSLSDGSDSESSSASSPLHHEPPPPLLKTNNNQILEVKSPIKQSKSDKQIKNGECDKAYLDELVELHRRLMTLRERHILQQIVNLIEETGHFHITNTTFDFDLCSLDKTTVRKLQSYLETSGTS
ALR inh: inhibitors of human ALR sulfhydryl oxidase, primary screen, biochemical, H2O2 detection, HRP-luminol luminescence, single point. FAD-linked sulfhydryl oxidase ALR (Homo sapiens), P55789. purified ALR, DTT oxidation. inhibition, % (test concentration not listed). 290,000 compounds, 3.8% hits. AID 485317, 2010;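 active = mean and each replicate at 75% or more; inconclusive = only one of the two met; inactive = neither met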;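 note: stock transfer was 7.5 nL into about 7.5 µL; 0% = neutral wells and 100% = wells with inactivated enzyme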
Target sequence (P55789 whole entry, looked up): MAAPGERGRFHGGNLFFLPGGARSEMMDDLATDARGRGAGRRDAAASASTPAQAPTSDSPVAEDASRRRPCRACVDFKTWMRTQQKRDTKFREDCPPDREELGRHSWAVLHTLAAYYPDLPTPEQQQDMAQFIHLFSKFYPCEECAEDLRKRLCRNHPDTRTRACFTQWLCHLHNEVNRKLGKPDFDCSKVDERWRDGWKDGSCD
FGF22 binding: binders of human FGF22 protein, primary screen, FGF22 synaptogenesis inhibitor project, biophysical, thermal shift, single point; 340,000 compounds, 1.5% hits; recombinant FGF22 thermal shift, SYPRO orange fluorescence; percent of sucrose octasulfate shift, DMSO zero; calls only at 9.99 µM; Fibroblast growth factor 22 (Homo sapiens), Q9HCT0;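 active = melting point raised past a set limit in the mean and every replicate; inconclusive = no clear call; three in four hits are not shown here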
Target sequence (Q9HCT0 whole entry, looked up): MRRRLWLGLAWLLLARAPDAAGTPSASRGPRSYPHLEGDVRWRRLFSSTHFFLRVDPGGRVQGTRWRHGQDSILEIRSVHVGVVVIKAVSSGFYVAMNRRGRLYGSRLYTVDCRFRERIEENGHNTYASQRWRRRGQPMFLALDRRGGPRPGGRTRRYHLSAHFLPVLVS
E coli growth: E. coli growth inhibition, primary screen, OD600 | 330,000 compounds, 0.21% hits | AID 1053175, 2014 | Escherichia coli growth, 23 h; hits give low values | OD600 absorbance (concentration not given with the values);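 active = OD600 absorbance below the run mean of sample wells minus 3.6 SD, in any replicate, cut at about 0.56 in these data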;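 note: stock transfer was 300 nL into about 60 µL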
rRNA inh HTS OD600: also measured in rRNA inh HTS; calls as there; OD600 change, %; measured here: OD600 growth;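 optical density of the mix in the first replicate; 0 = DMSO median and -100 = no signal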
rRNA inh HTS RFP: second read-out of rRNA inh HTS, no call of its own (marks repeat the call); RFP signal change, %; measured here: RFP humanized mutant strains;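 first replicate; 0 = DMSO median and -100 = no signal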
The depositor's hits bear a star; i = inactive; ? = inconclusive; . = no result given; + = active, no number; & = joins results of further samples.

SMILES	rRNA inh HTS	rRNA inh HTS OD600	rRNA inh HTS RFP	HNF4A DNA FP	Vif A3G	AF4-AF9 inh	ALR inh	FGF22 binding	E coli growth
Cc1cc(C)n2nc(CCCO)nc2n1	4.8	16.2	-6.6	-0.2	6.2%	-2.9	-5.7	i	0.672
CCN1CCCC1CNC(=O)c1ccc(N2CCOCC2)c(NS(=O)(=O)c2ccc(OC)cc2)c1 (stereo not drawn)	13.0	-1.4	-4.6	3.3	?	2.7	2.4	i	0.641
COc1ccc(C(=O)N[C@H](C(=O)Nc2cccc(S(=O)(=O)N3CCOCC3)c2)C(C)C)cc1	0.7	-3.6	2.1	-1.6	.	-1.9	.	i	.
CN1C(=O)c2cc(NC(=O)c3ccc4c(c3)OCO4)ccc2OC[C@H]2O[C@H](CC(=O)O)CC[C@@H]21	2.4	1.6	-4.5	.	.	-2.9	.	i	.
COc1ccc(C(C)=O)cc1COc1ccc(-n2cnnn2)cc1	.	.	.	20.4	-5.3%	.	3.7	.	0.674
Clc1ccc2nnc(Cl)n2n1	10.1	13.9	0.0	-1.5	-2.8%	-6.0	21.1	i	0.68
O=C(NCCC1=CCCCC1)c1cc(COc2c(F)cccc2F)on1	-3.0	-17.1	1.3	2.5	.	1.1	-0.5	i	0.721
C[C@H](CO)N1C[C@H](C)[C@H](CN(C)C(=O)NC2CCCCC2)Oc2ccc(NS(=O)(=O)c3ccc(F)cc3)cc2CC1=O	-3.1	-10.3	-0.5	.	.	-1.9	.	i	.
COc1ccc(F)cc1S(=O)(=O)Nc1ccc(C)cc1	.	.	.	0.7	2.9%	.	-1.5	.	0.733
OC[C@H]1[C@H](c2ccc(-c3ccc(F)cc3)cc2)[C@H]2CN(CCC(F)(F)F)CCCCN21	-58.9	-79.4	-14.1	.	.	7.4	.	i	.
CC1=CCC(COC(=O)Nc2ccccc2)CC1 (stereo not drawn)	.	.	.	-4.8	-0.7%	.	0.4	.	0.68
COc1ccc(C(=O)Nc2nc(-c3cccs3)cs2)cc1	.	.	.	-0.4	-2.3%	.	15.6	.	.
CC(CCc1ccccc1)NC(=O)CNC(=S)N(Cc1cccs1)C1CCCC1 (stereo not drawn)	-14.2	-12.4	6.8	-4.2	-1.4%	1.4	.	i	0.679
CN1CCN(c2ccc(NC(=O)c3ccc4c(c3)OCCO4)cc2Cl)CC1	3.4	2.7	-7.2	-5.1	4.8%	4.5	-9.6	i	0.641
C=CCN(CC=C)Cc1cc(=O)oc2cc(C)c(Cl)cc12	0.3	-17.1	-12.3	0.8	.	0.6	.	i	.
CCN(CC)c1nc2c(c(=O)[nH]c(=O)n2C)n1CCOc1ccccc1	-15.7	-17.4	-2.7	1.4	.	-5.4	-8.5	i	0.619
O=C(O)Cc1ccc(NC(=O)c2ccc(Cl)c(Cl)c2)cc1	-17.0	-19.6	-4.6	1.5	-4.8%	-1.6	-13.8	+	0.682
Oc1c(/C=N/c2ccccn2)sc2ccccc12	4.8	-0.3	20.7	14.5	1.6%	10.4	1.5	i	.
Cc1nc(NC(=O)C2CCCCC2C(=O)O)sc1C (stereo not drawn)	-1.6	8.9	1.2	-0.4	.	-4.3	-12.6	i	0.706
CN(C)CCCNC(=O)[C@@H]1[C@@H](CO)[C@@H]2Cn3c(ccc(-c4ccccc4)c3=O)[C@H]1N2C	1.6	0.6	-1.5	.	.	0.3	.	i	.
CC1CN=C(NS(=O)(=O)c2ccccc2)N1 (stereo not drawn)	8.4	29.4	3.0	-4.0	-1.4%	1.0	.	i	.
C[C@@H](O)C#Cc1cnc2c(c1)C(=O)N([C@@H](C)CO)C[C@H](C)[C@H](CN(C)CC1CCOCC1)O2	0.4	8.7	-0.4	.	.	-4.3	.	i	.
COc1ccc(OC)c(-c2nnc3n2N=C(c2ccc(OC)c(OC4CCOC4)c2)CS3)c1 (stereo not drawn)	-27.6*	-5.7*	-5.0*	6.5	.	17.1	3.6	i	0.69
O=C(CCS(=O)(=O)c1ccc(Cl)cc1)Nc1ccc(F)cc1	2.9	3.4	-7.6	-3.1	6.7%	-3.4	.	i	0.668
COCCN(C(=O)CCC(=O)Nc1cc(C)on1)C(C(=O)NC1CCCC1)c1ccc(C)cc1 (stereo not drawn)	3.1	2.0	-1.9	-1.5	.	1.7	0.2	i	0.627
COc1ccc(OC(=O)N(C)C[C@@H]2OCc3cn(nn3)CCCC(=O)N([C@@H](C)CO)C[C@H]2C)cc1	11.1&-3.8	8.3&2.9	-1.4&-0.9	1.1	.	-0.3&1.6&1.7	.	i	.
CC(=O)C1=C(O)C(=O)N(CCCn2ccnc2)C1c1ccc(Cl)cc1 (stereo not drawn)	26.1	21.3	3.2	-0.3	-1.0%	0.2	1.0	i	0.648
COc1ccc(S(=O)(=O)Nc2cccc3c2O[C@@H](CN(C)C(=O)NC2CCCCC2)[C@H](C)CN([C@@H](C)CO)C3=O)cc1	2.0	1.4	-0.8	.	.	-5.9	.	i	.
CCSc1nnc(CNC(=O)C23CC4CC(CC(C4)C2)C3)n1C1CCCCC1	5.5	2.5	-3.7	0.6	.	-73.6	-6.6	i	0.708
COc1cccc(-c2nnc(NC(C)=O)o2)c1	3.7	2.9	0.9	6.2	.	3.0	-3.3	i	0.704
O=C(Cn1cnc2c(nnn2Cc2ccc(F)cc2)c1=O)NCc1ccco1	.	.	.	-0.4	94.6µM*	.	-0.6	.	0.629
N#Cc1c(-c2ccncc2)c2c([nH]c1=O)-c1ccccc1OC2	.	.	.	.	-0.4%	-2.6	-13.4	i	.
O=C(COC(=O)c1cc(-c2cccs2)nc2ccccc12)NC1CCS(=O)(=O)C1 (stereo not drawn)	-11.2	-14.1	-1.3	-5.8	.	3.4	-2.6	i	0.619
COc1ccc(C2CC(=O)C3=C(C2)Nc2ccccc2N(C(C)=O)C3c2ccco2)cc1 (stereo not drawn)	.	.	.	7.6	-3.3%	.	.	.	0.662
CCC(=O)N(C)C[C@H]1Oc2cc(-c3ccc(OC)cc3)ccc2S(=O)(=O)N([C@@H](C)CO)C[C@@H]1C	-4.8	0.1	1.0	.	.	1.1	.	i	.
CNC(=O)CN(Cc1ccccc1)S(=O)(=O)c1ccccc1	.	.	.	-0.4	18.8%	.	0.3	.	0.677
CCCn1nc(C(=O)N(C)CC(=O)Nc2ccc(OCC)c(OCC)c2)c2ccccc2c1=O	2.6	6.6	1.4	4.5	-0.8%	4.7	-7.2	i	0.604
COc1cc(C(=O)N2CCN(C)C(C)C2)ccc1OC1CCN(C(C)=O)CC1 (stereo not drawn)	8.1	12.8	-1.4	-6.7	.	-3.4	1.7	i	0.702
COc1ccc(NC(=O)CSc2nnc(CCC(=O)Nc3ccc(C)c(Cl)c3)n2C)cc1	.	.	.	0.3	4.2%	.	-4.0	.	0.69
O=S(=O)(/C=C/c1ccccc1)Nc1ccc2c(c1)OCO2	.	.	.	-1.9	8.2%	.	23.9	.	0.774

Copied from the list.
CCCn1nc(C(=O)N(C)CC(=O)Nc2ccc(OCC)c(OCC)c2)c2ccccc2c1=O in rRNA inh HTS RFP is entered as 1.4
COc1cc(C(=O)N2CCN(C)C(C)C2)ccc1OC1CCN(C(C)=O)CC1 (stereo not drawn) in rRNA inh HTS OD600 is entered as 12.8

Going on with the list.
SMILES	rRNA inh HTS	rRNA inh HTS OD600	rRNA inh HTS RFP	HNF4A DNA FP	Vif A3G	AF4-AF9 inh	ALR inh	FGF22 binding	E coli growth
c1ccc2sc(N3CCCN(Cc4nc(-c5cnccn5)no4)CC3)nc2c1	-4.8	-1.5	-11.3	5.4	.	5.0	-2.3	i	0.695
CCOC(=O)c1sc2nc(CSCC(=O)OCc3ccc(C(=O)OC)o3)[nH]c(=O)c2c1C	-1.8	0.0	0.9	11.7	1.1%&-3.2%	.	91.5*	.	0.722
O=C(COc1ccc2c(c1)C(=O)CC1(CCCCC1)O2)NCc1ccccn1	.	.	.	1.8	2.7%	.	5.2	.	0.642
COCCNC(=O)c1cc2c(c(-c3cccc(C#Cc4ccc(OC)c(OC)c4)c3)n1)[C@@H](CCO)N(S(=O)C(C)(C)C)C2 (stereo partly drawn)	-1.7	-2.1	8.7	18.6	.	5.4	.	i	.
COc1cccc(NC(=O)COc2ccc(C(=S)N3CCN(C)CC3)cc2OC)c1	-1.0	-4.1	4.9	-1.6	.	1.8	-4.5	i	0.712
S=c1[nH]nc(-c2ccco2)n1C1CCCCC1	.	.	.	0.8	.	.	94.9*	.	0.667
COc1cc(C=O)ccc1OCCOc1ccccc1[N+](=O)[O-]	12.0	14.6	-1.5	0.7	-5.0%	0.6	-4.1	i	0.749
CCNC(=O)CC1SC(=Nc2ccccc2C)N(C)C1=O (stereo not drawn)	.	.	.	1.3	22.3%	.	3.0	.	0.664
C[C@H](CO)N1C[C@H](C)[C@H](CN(C)C(=O)C2CC2)Oc2cc(-c3ccccc3F)ccc2S1(=O)=O	-9.6	-14.6	4.7	.	.	1.2	.	i	.
CCOc1cc(N2CCOCC2)c(OCC)cc1NC(=O)c1nc2nc(C)cc(C)n2n1	.	.	.	-1.1	3.5%	.	-12.8	.	0.726
COCC(=O)N(C)C[C@H]1Oc2ncc(C3=CCCC3)cc2C(=O)N([C@H](C)CO)C[C@@H]1C	-2.0	-6.5	-3.8	.	.	-1.8	.	i	.
CC(C)NC(=O)Nc1cccc2c1O[C@@H](CN(C)C)[C@@H](C)CN([C@H](C)CO)C2=O	-0.4	-3.5	-0.3	.	.	-0.4	.	i	.
CC(=O)Nc1ccc(NC(=O)COc2ccc(Br)cc2C)cc1	5.8	6.3	6.3	-1.2	3.3%	-0.7	-2.2	i	0.668
C[C@@H](NC(=O)C[C@H]1CC[C@H]2[C@@H](COC[C@H](O)CN2Cc2cc(F)ccc2F)O1)c1ccccc1	0.9	7.2	1.6	.	.	3.4	.	i	.
CC(NCC(O)c1ccc([N+](=O)[O-])cc1)C12CC3CC(CC(C3)C1)C2 (stereo not drawn)	-1.0	-0.7	1.9	-0.2	.	5.9	-2.8	i	0.632
O=C(CN1C(=O)C2CCc3[nH]c4ccccc4c3C2C1=O)N1CCCC1 (stereo not drawn)	.	.	.	-0.7	20.1%	3.3	.	.	0.795
O=C(CN1C2=NCCN2c2ccccc21)N1CCOCC1	.	.	.	.	13.9%	.	-15.8	.	0.723
C[C@@H]1CN([C@H](C)CO)C(=O)c2ccccc2-c2ccccc2CO[C@H]1CN(C)S(=O)(=O)c1ccc(C(F)(F)F)cc1	0.2	-5.2	3.0	.	.	3.8	.	i	.
Cc1noc(C)c1C(=O)Nc1ccc(C#N)cc1	3.1	10.2	0.7	-0.6	.	-2.2	-4.6	i	0.721
COCCNc1ncnc2c1nc1n2CCCC1	5.7	10.6	-1.8	-0.7	-4.3%	-5.0	4.2	i	0.671
CCC(CC)C(=O)N(C)c1c(C)nc2c(OCC=C(C)C)cccn12	-62.3	-69.9	-26.0	-1.0	.	3.9	.	i	.
CCOc1ccc(NCc2nc3ccccc3n2CCOc2ccccc2)cc1	.	.	.	2.5	11.4%	.	5.3	.	0.658
CCN(CC)C(=O)CN1C(=O)C2(OCC(C)(C)CO2)c2ccccc21	1.0	-0.7	-10.8	-1.9	-10.8%	-15.9	.	i	0.721

The list is partial; rates above refer to the full screens.
